# HNF4A DNA FP = change in binding of human HNF4 alpha to DNA. AID 1224865. actives 0.3% (n = 360,000). activity change, % at 10 µM. HNF4a-FITC DNA binding, fluorescence polarization, 1 h. P41235; in the data active means activity change above about 30%, passing the limit was not always enough;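 further: controls were the assay level and a saturating level of protein; the project sought stronger binding though the title names inhibitors; some compounds called inactive have numbers as strong as hits; positive values seem to mean higher polarization but the record does not say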
# Target sequence (P41235 whole entry, looked up): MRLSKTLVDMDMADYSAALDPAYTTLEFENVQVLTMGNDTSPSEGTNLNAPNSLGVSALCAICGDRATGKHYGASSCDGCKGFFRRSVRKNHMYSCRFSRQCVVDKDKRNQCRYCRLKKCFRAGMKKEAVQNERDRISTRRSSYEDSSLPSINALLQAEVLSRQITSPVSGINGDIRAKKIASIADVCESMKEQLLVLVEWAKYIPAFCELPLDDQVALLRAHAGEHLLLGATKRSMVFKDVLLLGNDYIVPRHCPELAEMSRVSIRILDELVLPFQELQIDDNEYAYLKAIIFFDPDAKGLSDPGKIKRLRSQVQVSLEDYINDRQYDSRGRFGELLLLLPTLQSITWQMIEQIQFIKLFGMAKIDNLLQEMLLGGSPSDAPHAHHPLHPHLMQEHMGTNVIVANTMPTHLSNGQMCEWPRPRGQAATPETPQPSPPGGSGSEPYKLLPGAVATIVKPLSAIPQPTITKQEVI
# UCH37 DUB inh = human UCH37 deubiquitinating enzyme inhibition; Q9Y5K5; inhibition, % (no concentration beside the values); purified proteasome/UCH37, Ub-AMC cleavage fluorescence; actives 0.33% (n = 330,000);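 active means mean of two replicates above 20%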;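 further: 0% = compound-free wells with enzyme and 100% = wells lacking proteasome; stock transfer was 100 nL into about 20 µL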
# Target sequence (Q9Y5K5 whole entry, looked up): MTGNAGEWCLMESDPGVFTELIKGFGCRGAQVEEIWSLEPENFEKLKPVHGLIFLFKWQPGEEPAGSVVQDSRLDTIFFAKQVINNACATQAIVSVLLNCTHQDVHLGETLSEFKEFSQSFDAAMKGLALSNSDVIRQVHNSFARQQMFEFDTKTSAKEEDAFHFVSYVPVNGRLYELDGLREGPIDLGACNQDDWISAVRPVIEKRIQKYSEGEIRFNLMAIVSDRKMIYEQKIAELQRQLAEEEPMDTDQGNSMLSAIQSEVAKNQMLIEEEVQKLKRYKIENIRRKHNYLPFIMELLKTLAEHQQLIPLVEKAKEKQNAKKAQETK
#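 Material: Human UCH37 enzyme supplied as purified proteasome complex | Schedule: 30 min preincubation with enzyme, 25 min cleavage at room temperature | Detection: AMC fluorescence 355/460 nm | Measure: % inhibition of Ub-AMC cleavage fluorescence | Controls: Wells without proteasome as full block, compound-free enzyme plus substrate as uninhibited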
# E coli growth = inhibitors of Escherichia coli growth | OD600, 23 h; hits give low values | OD600 absorbance (concentration not given with the values) | actives 0.21% (n = 330,000);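 active means OD600 absorbance below the run mean of sample wells minus 3.6 SD, in any replicate, cut at about 0.56 in these data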;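 further: stock transfer was 300 nL into about 60 µL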
# Vif A3G = inhibitors of Vif binding to APOBEC3G peptide, primary screen, biochemical, TR-FRET, GST-Vif 1-94, biotin-A3G peptide, dose response retest (AID 1117319); TR-FRET GST-Vif / biotin-A3G peptide binding; higher % means a stronger effect; test concentration not given here; strong numbers were not always called active; inhibition, %; hits with a dose series show IC50 in µM; actives 0.57% (n = 260,000);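 active means above the screen mean plus three standard deviations and confirmed in dose response; inconclusive means results disagree or hit not tested in dose response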;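 further: Vif residues 1-94 fused to GST binding biotinylated APOBEC3G peptide 110-148; 0% = full assay without inhibitor and 100% = GST in place of GST-Vif; retest series ran down from 100 µM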
# Bfl-1 A1 inh = inhibitors of the anti-apoptotic protein A1, read as caspase activation; caspase activation, % (test concentration not listed); MEF A1-2A-BIM cells, Caspase-Glo 3/7 luminescence, 3 h; percent of clofoctol response, vehicle zero; actives 0.066% (n = 330,000);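 active means over half of replicate activation scores above 10%, or exactly half above 10 with the replicate mean above 10; inconclusive means replicate mean below 10 yet half the replicates above 10; inactive means over half of replicates below 10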;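 further: wells of about 30 µL received 50 nL stock; many hits fall short of the cut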
# LANA-H2A inh = blocks KSHV LANA binding to histone H2A/H2B; Q9QR71; cell-free LANA-H2A/H2B peptide, fluorescence polarization; inhibition, % (concentration not given with the values); actives 0.6% (n = 320,000); AID 2629; in the data active means inhibition mostly above about 10%, no sharp cut-off; inactive means mostly below about 6.7%;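 further: stock transfer was 7.5 nL into about 10 µL; 0% = median of vehicle wells and 100% = median of positive control wells; one replicate is shown; the record names a cut of 25% in any replicate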
# B2AR ag = activates human beta-2 adrenergic receptor causing internalization; response, % (concentration not given with the values); P07550; AID 504454; Am2.2-beta2AR cells, FAP receptor internalization, flow cytometry; reference of the scale not given here; actives 0.43% (n = 340,000);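 active means response above a set limit, near 3 SD of response in nonfluorescent compounds, cut at about 42% in these data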;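 further: stock transfer was 100 nL into about 11 µL; a reference agonist was the positive control; negative values mostly stem from fluorescent compounds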
# Starred values were filed as active, the others as inactive; ? = inconclusive; . = not tested or not shown; & = joins results of further samples.
SMILES,HNF4A DNA FP,UCH37 DUB inh,E coli growth,Vif A3G,Bfl-1 A1 inh,LANA-H2A inh,B2AR ag
COc1cccc(N2CCN(C(=O)c3cccc(N4C(=O)NC5CC4(C)Oc4c(OC)cccc45)c3)CC2)c1 (stereo unspecified),-0.3,4.0,0.689,.,-0.1,10.7,2.3
CCOC(=O)C1=C(C)N(CCCCCC(=O)O)C(=O)NC1c1ccccc1Cl (stereo unspecified),1.2,1.1,0.672,6.9%,-0.4,-4.9,-6.7
CCC1CCCCN1C(=O)CSc1nnc(N)s1 (stereo unspecified),0.1,-2.7,0.71,-4.6%,0.2,-0.1,-3.1
Cc1csc(NC(=O)CCCC(=O)O)c1-c1nc2ccccc2s1,1.5,.,.,-9.1%,-0.3,1.7,17.9
Cc1cccc(OCCOC(=O)c2c(-c3ccccc3)noc2C)c1,-3.7,1.3,0.712,.,0.0,-2.5,-1.8
O=C(OCc1nnc(-c2cccs2)o1)c1cccnc1Cl,-2.9,0.7,0.634,.,.,.,-3.8
CCOc1ccccc1NC(=O)c1cc(S(=O)(=O)NCc2ccco2)ccc1F,-1.9,2.8,0.736,2.4%,0.4,5.0,11.4
COc1cc(C(C)=O)ccc1Oc1ncnc2c1cnn2-c1cccc(Cl)c1,0.8,3.9,0.686,-9.8%,0.9,0.4,-12.0
Fc1ccccc1CN1CCCN(C(=S)Nc2cccc(Cl)c2)C1,-2.0,3.0,0.633,20.7%,0.6,1.3,4.8
CC(C)(C)OC(=O)COc1ccc(/C=N/NC(=O)CN2CCCCC2)cc1,0.5,.,.,5.5%,.,.,-4.0
CCc1cc2c(=O)n3c(nc2s1)-c1[nH]c2ccc(OC)cc2c1CC3,2.5,-50.3,0.676,3.2%,-0.4,-2.4,6.1
FC(F)Oc1ccc(NC(=S)N2CCN(Cc3ccccc3)CC2)cc1,2.3,-0.3,0.69,.,1.2,0.1,15.6
COc1ccccc1N(CC(O)CN(c1ccccc1)S(C)(=O)=O)S(=O)(=O)c1ccccc1 (stereo unspecified),0.3,0.3,0.709,-0.1%&-1.6%,0.5,2.1,2.4
Cc1ccc(C2=NN(C(=O)CNCCO)C(c3cccs3)C2)cc1 (stereo unspecified),0.6,-0.9,0.726,4.8%,-0.1,0.2,5.7
COc1ccc(C(=O)NC(=S)Nc2ccccc2N2CCCCC2)cc1[N+](=O)[O-],-0.6,4.7,0.731,.,0.0,-2.9,-7.6
CCC(C)n1c(SCC(=O)NCc2ccco2)nnc1-c1cccc(S(=O)(=O)N2CCOCC2)c1 (stereo unspecified),0.0,5.4,0.759,0.1%&26.4%,0.0,.,-2.1
O=C1CCc2cc(S(=O)(=O)NCCC(=O)NC3CCCCC3)ccc2N1,-1.2,1.5,0.721,.,-0.7,0.9,1.9
COc1ccc(OC)c(NC(=O)c2nnn(CCc3ccccc3)c2N)c1,1.7,6.4,0.755,2.0%,-0.8,-3.4,3.8
O=[N+]([O-])c1ccc(NCc2ccccc2)nc1,1.7,10.5,0.692,.,-1.0,4.2,-4.5
Cn1c(SCC(=O)NC2CCCCC2)nnc1-c1cc2cc(Cl)ccc2o1,-1.7,5.0,0.723,?,-0.1,-1.5,-1.1
Cc1cc(N2CCN(C(=O)Nc3ccccc3C#N)CC2)c2ccccc2n1,-0.7,2.0,0.684,.,0.9,4.5,11.5
CC(=O)Nc1ccc(S(=O)(=O)NC(C)c2nc(-c3ccccc3)no2)cc1 (stereo unspecified),-1.1,2.2,0.638,.,-0.8,7.5,-1.6
CCOC(=O)/C=C/C(=O)Nc1cc(S(=O)(=O)Nc2ccc(OC)cc2)ccc1N1CCOCC1,-1.6,1.0,0.635,3.1%,.,.,2.7
O=C(CCNS(=O)(=O)c1ccccc1F)N1CCN(C(c2ccccc2)c2ccccc2)CC1,-1.4,4.0,0.688,-3.5%,0.4,9.3,6.0
c1csc(CN2CCN(Cc3cccs3)C2c2cccs2)c1,10.7,5.0,0.758,-0.8%,0.7,0.1,11.3
CCCCOc1ccc(C(=O)OCC(=O)c2c(N)n(C)c(=O)n(C)c2=O)cc1,-3.2,-3.0,0.647,.,-0.9,-4.2,-7.3
Cc1ccc(OCc2nc(-c3ccccn3)no2)c(Br)c1,2.1,6.2,0.715,4.0%,-7.5,-0.8,-4.7
CCOC(=O)C(=NCCCN1CCOCC1)NNc1cccc(C(F)(F)F)c1,-3.5,4.8,0.711,.,-0.8,1.4,18.8
c1ccc(-c2cc(N3CCOCC3)nc3ccccc23)cc1,0.4,-89.0,0.713,27.0%,-2.1,-7.0,-5.6
CCN(CC)S(=O)(=O)c1ccc(N2Cc3ccccc3C2=N)cc1,-0.7,6.5,0.652,.,0.6,-0.1,-1.5
NC(=O)c1cc(-c2ccccc2)nc2ccc(Br)cc12,-2.9,5.2,0.672,-13.7%,-0.1,-2.8,-3.1
COc1ccc(Cl)cc1NC(=O)CN1CCC(n2nnc3cc(F)ccc32)CC1,-0.9,2.9,0.667,-10.9%,1.1,-1.2,-6.8
Cc1ccc(S(=O)(=O)N2CCN(C(=O)COC(=O)C3(C)CC3(Cl)Cl)CC2)c(C)c1 (stereo unspecified),-2.9,1.8,0.712,-11.6%,2.6,-3.1,-1.5
C=C1CCN([C@@H](CC(C)C)C(=O)NCc2ccccc2)S(=O)(=O)c2ccccc21,-1.4,-1.7,.,.,1.8,-0.4,1.8
CCCCCNC(=O)c1ccc2c(=O)n(CCCN3CCCC3=O)c(=S)[nH]c2c1,2.7,2.8,0.701,?,0.2,2.1,-2.2
CCCCCCC(CC(=O)NCc1cccnc1)CC(=O)NCc1cccnc1,6.4,4.9,0.706,.,-0.3,1.1,-1.8
Cc1ccc2c(C(=O)CN3CC(C)CC(C)C3)c(C)[nH]c2c1 (stereo unspecified),1.1,-0.9,0.669,5.6%,1.2,3.0,-3.1
CC(C)OC(=O)c1cc2c(ccn2C)n1CC(=O)N(Cc1ccccc1)c1ccc(F)cc1,0.1,1.4,0.707,.,0.4,-2.1,7.8
Cc1ccc(-c2csc(NC(=O)Cn3[nH]c(=O)c4ccccc4c3=O)n2)cc1,50.0*,-4.7,0.695,3.0%,0.4,-1.0,3.4
CCCOC(=O)C1C2C=CC3(CN(c4ccc(Cl)c(F)c4)C(=O)C13)O2 (stereo unspecified),-1.2,6.6,0.753,2.5%,-0.1,0.9,-3.8
Cc1nnc(SCC2=C(C(=O)O)N3C(=O)C(NC(=O)c4cccc(F)c4F)C3SC2)s1 (stereo unspecified),0.9,3.9,0.702,.,0.8,-5.5,-2.6
OCc1ccc(OCCCOc2cccc3cccnc23)cc1,-4.1,-1.5,0.724,.,?,0.6,-1.3
CCOc1ccc(S(=O)(=O)N(C)CC(=O)NCc2ccccn2)cc1,2.3,0.6,0.697,.,-0.2,-5.5,-9.2
O=C(c1ccccc1)c1nccn1-c1ccc(Cl)nn1,3.3,1.4,0.648,-4.5%,1.4,-0.2,-27.0
CCOc1ccc(/C(O)=C2\C(=O)C(=O)N(CCN(C)C)C2c2cc(OC)ccc2OC)cc1Cl (stereo unspecified),-2.1,7.7,0.675,4.7%,.,.,-12.5
Cc1cccc(NC(=S)NNC(=O)c2cc3c(s2)CCC(C)C3)c1C (stereo unspecified),-0.5,0.9,0.716,-5.1%,0.1,1.5,0.1
O=C(NCCCN1CCOCC1)c1sc2cc(F)ccc2c1Cl,0.9,1.7,0.677,.,-0.4,-3.0,-7.2
COc1nc(OC)nc(Oc2ccc([N+](=O)[O-])cc2Cl)n1,-4.8,3.9,0.683,-2.3%,-0.5,0.4,-7.7
O=C(Cn1cnc2c(cnn2-c2ccccc2)c1=O)Nc1ccc(S(=O)(=O)N2CCOCC2)cc1,4.5,1.2,0.688,.,0.2,-1.4,16.7
O=C(NCc1ccccc1)[C@]1(C(F)(F)F)C[C@H](CCc2ccccc2)CCCO1,2.0,1.5,.,.,-1.9,0.4,-1.8
CCn1c(SCC(=O)Nc2nc3ccccc3s2)nnc1-c1ccc(OC)cc1,1.8,-0.3,0.801,0.4%,0.7,2.2,-3.4
COC(=O)c1[nH]c2ccc(C)cc2c1NC(=O)CN1CCN(c2ccc(F)cc2)CC1,-0.3,-6.4,0.693,-7.5%,1.0,0.1,8.3
CSCC(C)N1CCC(CO)(CCCc2ccccc2)CC1 (stereo unspecified),-0.6,1.1,0.637,.,0.9,-4.1,6.4
CCOC(=O)CCCCCC(=O)Nc1ccc2c(c1)CC(=O)N([C@H](C)CO)C[C@H](C)[C@H](CN(C)S(=O)(=O)c1ccc(OC)cc1)O2,0.4,-2.0,0.779,.,-0.5,11.0,-1.8
O=C(Cc1ccccc1[N+](=O)[O-])NCC(=O)c1ccc2c(c1)OCO2,10.9,.,.,-9.2%,.,.,-4.2
O=C(Oc1ccccc1)N1CCN(c2ccccc2F)CC1,-0.3,1.5,0.664,8.9%,0.9,-7.9,6.0
COC(=O)c1c(NS(C)(=O)=O)sc2c1CCCC2,-3.3,3.7,0.714,8.7%,1.2,3.2,-20.0
C[C@H]1CN([C@@H](C)CO)C(=O)c2cccc(NC(=O)Nc3ccc(C(F)(F)F)cc3)c2O[C@@H]1CN(C)S(=O)(=O)c1ccccc1,3.6,3.2,0.682,-6.9%,.,.,1.6
Cc1ccccc1OCCC(=O)OCC(=O)NC1CCCC1,2.2,1.5,0.657,.,-0.8,-10.4,-1.7
CCOC(=O)N1CCN(c2ccc(S(=O)(=O)N(Cc3ccccc3)Cc3ccccc3)cn2)CC1,-1.4,0.4,0.748,5.0%,0.5,-0.4,2.9
# Continued.
SMILES,HNF4A DNA FP,UCH37 DUB inh,E coli growth,Vif A3G,Bfl-1 A1 inh,LANA-H2A inh,B2AR ag
COc1ccc(-c2cc3c(=O)n(CC(=O)Nc4cccc(Cl)c4)ncn3n2)cc1,-2.2,-2.0,0.689,.,0.2,2.4,3.2
CSCCC(Nc1nc2ccccc2s1)C(=O)O (stereo unspecified),4.9,3.0,0.669,9.7%,0.1,2.8,-0.2
O=C(NCc1ccccc1)c1c[nH]c2ccc(S(=O)(=O)Nc3ccc4c(c3)OCCO4)cc2c1=O,-0.9,0.5,0.694,14.4%,0.3,6.5,3.4
CCN(CC(=O)NCc1cccs1)C(=O)c1cccc(S(=O)(=O)Nc2ccccc2Cl)c1,-0.2,4.2,0.656,1.0%,0.7,.,-11.7
CC(C)n1cnc2c(NCc3ccccc3)nc(NCc3ccccc3)nc21,8.4,4.2,0.679,-6.9%,2.2,-2.2,-8.0
Cc1ccc(C(=O)NC(Cc2ccccc2C(F)(F)F)C(=O)O)cc1 (stereo unspecified),0.4,2.2,0.705,1.9%,.,.,-0.8
O=C(COc1ccc(S(=O)(=O)N2CCCC2)cc1Cl)NCc1ccccn1,0.5,2.9,0.652,.,1.7,2.6,-2.5
Cc1sc2nc(C3CC3)nc(N3CCN(C(=O)c4ccc(Cl)cc4)CC3)c2c1C,0.3,4.4,0.693,-3.1%,1.3,0.1,-0.1
CC(C)CC(=O)NC(c1ccccc1)c1c(O)ccc2ccccc12 (stereo unspecified),0.5,-5.1,0.636,.,-1.0,-0.5,4.3
COc1ccc(S(=O)(=O)N2CCOCC2)c(C)c1C,-1.0,1.7,0.674,-1.8%,1.3,5.8,-2.2
CCN1C(=O)CC(N2CCC(Cc3ccccc3)CC2)C1=O (stereo unspecified),3.3,-2.2,0.677,0.9%,-0.8,-1.9,4.0
O=C(OCC(=O)N1CCc2ccccc2C1)c1cc(=O)[nH]c2ccccc12,0.7,-29.1,0.704,9.7%,0.0,4.2,-3.6

# Compound activity: PubChem, several laboratories
